Compound activity deposited in PubChem by several laboratories.
Bead autofluor = flagged as autofluorescent in microsphere protease counterscreen; compound autofluorescence counterscreen, microsphere flow cytometry; stronger effect = higher value; fluorescence intensity (concentration not given with the values); actives 3.1% (n = 360,000); AID 624483;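 active = at least 3 SD above the mean of all compounds, about 16000 in these data; inconclusive = too few beads counted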;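 also: 100 nL of 1 mM stock went into each well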
PrP UTR inh = suppresses PrP 5' UTR mRNA reporter expression; cell-based PrP 5' UTR mRNA reporter, plate reader; inhibition, % (test concentration not listed); actives 0.35% (n = 340,000); AID 488862;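 active = every replicate at 50% or more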;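 also: 0 = median of the neutral control wells; tested in H4 reporter cells; numbers are from one replicate; inactives centre near -14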
Sa ugtP lethal = growth inhibition of S. aureus ugtP deletion strain | growth inhibition, % (concentration not given with the values) | S. aureus RN4220 ugtP deletion, OD600 growth, 16 h; some inactives read as strong as hits | actives 0.54% (n = 330,000);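 active = z-score under -3 and OD600 up to 0.15 on both plates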;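 also: plate controls were untreated wells for no effect and antibiotic for full effect; wells of about 80 µL received 100 nL stock; the first replicate is given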
Mtb hypoxia inh = inhibitors of hypoxia-regulated fluorescent reporter in Mycobacterium tuberculosis. M. tuberculosis hypoxia-regulated fluorescent reporter, fluorescence. fluorescence inhibition, % (no concentration beside the values). actives 0.1% (n = 300,000). AID 1159583;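 active = 35 to 45% if threefold the growth effect, above 45% if 1.5-fold the growth effect; inactive = the rest, general growth blockers included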;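 also: wells of about 50 µL received 100 nL stock; 0% = vehicle wells and 100% = reference inhibitor wells; whole bacteria with a GFP reporter of the hypoxia response; strong numbers were not always called active; many hits fall short of the cut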
BJeLR viability = kills HRASV12-expressing BJeLR cells | BJeLR (HRASV12) viability, CellTiter-Glo ATP luminescence, 48 h; reference of the scale not given here | inhibition, % (test concentration not listed) | actives 0.17% (n = 300,000) | AID 1554;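 active = replicate mean above 50%; inconclusive = above 50% but judged a plate artefact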;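 also: 50 nL library stock added to about 25 µL; numbers are from one replicate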
Sa RN4220 lethal = kills Staphylococcus aureus RN4220 | S. aureus RN4220 growth, OD600, 16 h | inhibition, % (concentration not given with the values) | actives 0.33% (n = 330,000);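 active = z-score of -3 or lower and OD600 up to 0.18 on both plates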;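 also: plate controls were untreated cells for no effect and reference antibiotic for full effect; stock transfer was 100 nL into about 80 µL; one replicate is shown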
Mtb hypoxia inh growth = also measured in Mtb hypoxia inh; calls as there; growth inhibition, %; measured here: M. tuberculosis growth (absorbance);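 0% = vehicle and 100% = reference antibiotic; read after six days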
* hit, by the source's call.

How did CCCn1nc(NC(=O)c2cccs2)c2cc3ccccc3nc21 do in these assays?
Bead autofluor: 23719*; PrP UTR inh: 3; Sa ugtP lethal: -7; Mtb hypoxia inh: -1; BJeLR viability: 9; Sa RN4220 lethal: 13; Mtb hypoxia inh growth: 6

Results for CC(Cc1n[nH]c(=S)o1)c1ccccc1 (stereo unspecified) ?
Bead autofluor: 4433; PrP UTR inh: -25; Sa ugtP lethal: 1; Mtb hypoxia inh: 12; BJeLR viability: 1; Sa RN4220 lethal: 3.0; Mtb hypoxia inh growth: 9

How did Cc1ccc(-c2ccc(/C=N/c3ncn[nH]3)o2)cc1Cl do in these assays?
Bead autofluor: 3344; PrP UTR inh: -57; BJeLR viability: 3

What do the screens show for `COC(=O)c1ccc(C(=O)OC)c(NC(=S)N2CCCC(CO)C2)c1` (stereo unspecified)?
Bead autofluor: 4215; PrP UTR inh: -3; Sa ugtP lethal: 3; Mtb hypoxia inh: 4; BJeLR viability: 9; Sa RN4220 lethal: 13; Mtb hypoxia inh growth: 7

What do the screens show for `Cc1noc(C)c1C(=O)N1CCN(S(=O)(=O)c2cccc(Cl)c2Cl)CC1`?
Bead autofluor: 3283; PrP UTR inh: -3; Sa ugtP lethal: 10; Mtb hypoxia inh: 12; BJeLR viability: 2; Sa RN4220 lethal: 6.6; Mtb hypoxia inh growth: -8

Results for CCN(CC)CCCNC(=O)c1[nH]c2ccccc2c1Sc1ccc(Cl)cc1 ?
Bead autofluor: 4955; PrP UTR inh: -11; Sa ugtP lethal: -18; Mtb hypoxia inh: 18; BJeLR viability: -2; Sa RN4220 lethal: -6.1; Mtb hypoxia inh growth: 10

How did N=c1sccn1CC(=O)Nc1ccccc1Cc1ccccc1 do in these assays?
Bead autofluor: inconclusive; PrP UTR inh: -8; Sa ugtP lethal: 4; Mtb hypoxia inh: 8; BJeLR viability: 0; Sa RN4220 lethal: 0.7; Mtb hypoxia inh growth: 3

Results for CCOc1ccc(C=NNC(=O)c2[nH]ncc2Br)c(O)c1 ?
Sa ugtP lethal: -2; Mtb hypoxia inh: 6; Sa RN4220 lethal: -1.3; Mtb hypoxia inh growth: 3

What do the screens show for `Cc1nc2ccccc2n1CSc1ccccc1`?
Bead autofluor: 2854; PrP UTR inh: -4; Sa ugtP lethal: -3; Mtb hypoxia inh: 4; BJeLR viability: 2; Sa RN4220 lethal: 3.0; Mtb hypoxia inh growth: 4

Results for Cc1ccc(S(=O)(=O)N(Cc2cc3cc4c(cc3[nH]c2=O)OCCO4)CC2CCCO2)cc1 (stereo unspecified) ?
Bead autofluor: 5215; PrP UTR inh: -24; Sa ugtP lethal: 4; Mtb hypoxia inh: -1; BJeLR viability: 8; Sa RN4220 lethal: 6.4; Mtb hypoxia inh growth: -1

How did CCOc1ccccc1NC(=O)CCNC(=O)c1ccc(Cl)cc1 do in these assays?
Bead autofluor: 4560; PrP UTR inh: -25; Sa ugtP lethal: 0; Mtb hypoxia inh: 7; Sa RN4220 lethal: -5.7; Mtb hypoxia inh growth: 0

Results for COc1cccc(-c2ccc3c(N)c(C(=O)NC4CC4)sc3n2)c1 ?
Bead autofluor: 4425; PrP UTR inh: -108; Sa ugtP lethal: -13; Mtb hypoxia inh: -4; BJeLR viability: 2; Sa RN4220 lethal: 2.6; Mtb hypoxia inh growth: 10

Results for [O-][n+]1c2ccccc2c2n1CCN1CCOC21c1ccc(Cl)cc1 (stereo unspecified) ?
Bead autofluor: 3087; PrP UTR inh: -90; Sa ugtP lethal: 69; Mtb hypoxia inh: 66*; Sa RN4220 lethal: 47; Mtb hypoxia inh growth: 39*

Results for CC[C@@]1(c2ccccc2)C(=O)N(C(=O)OC)N1C(=O)OC ?
Bead autofluor: 3864; PrP UTR inh: -4; BJeLR viability: -1

Results for CN(Cc1ccccc1)c1nc2nonc2nc1N1CCCC(CN2CCCC2=O)C1 (stereo unspecified) ?
Bead autofluor: 3944; PrP UTR inh: -11; Sa ugtP lethal: -7; Mtb hypoxia inh: -7; BJeLR viability: 0; Sa RN4220 lethal: -0.3; Mtb hypoxia inh growth: -7

How did COc1cccc(/C=N/Nc2nc(Nc3ccc([N+](=O)[O-])cc3)nc(N3CCCC3)n2)c1O do in these assays?
Bead autofluor: 3676; PrP UTR inh: 24; BJeLR viability: 13

Results for CCOC(=O)C1=C(CN2CCOCC2)NC(=O)NC1c1cc(C)ccc1C (stereo unspecified) ?
Bead autofluor: 7040; PrP UTR inh: -13; Sa ugtP lethal: 7; Mtb hypoxia inh: 8; BJeLR viability: -5; Sa RN4220 lethal: 5.1; Mtb hypoxia inh growth: 3

Results for COC(=O)Cn1cnc2c(cnn2-c2ccc(OC)cc2)c1=O ?
Bead autofluor: 3411; PrP UTR inh: -15; Sa ugtP lethal: -1; Mtb hypoxia inh: 0; BJeLR viability: -11; Sa RN4220 lethal: 4.7; Mtb hypoxia inh growth: 2

What do the screens show for `COC(c1ccccc1)c1nnc(CCC(=O)N(C)CCc2ccccc2)o1` (stereo unspecified)?
Bead autofluor: 2463; PrP UTR inh: -23; Sa ugtP lethal: 3; Mtb hypoxia inh: -3; BJeLR viability: -11; Sa RN4220 lethal: 2.5; Mtb hypoxia inh growth: -1

Results for Cc1ccccc1NC(=O)c1sc2nc(N3CCOCC3)c3c(c2c1N)CCCC3 ?
Bead autofluor: 4086; PrP UTR inh: -10; Sa ugtP lethal: 11; Mtb hypoxia inh: 13; BJeLR viability: -9; Sa RN4220 lethal: 3.4; Mtb hypoxia inh growth: 5

What do the screens show for `CC1CCN(C(=O)c2ccccc2SCC(=O)NCC2CCCCC2)CC1`?
Bead autofluor: 5883; PrP UTR inh: -8; Sa ugtP lethal: -6; Mtb hypoxia inh: -1; BJeLR viability: 3; Sa RN4220 lethal: -3.2; Mtb hypoxia inh growth: 1

Results for NC(=O)c1cc([N+](=O)[O-])c(Cl)cc1NCc1cccnc1 ?
Bead autofluor: 3038; PrP UTR inh: -13; Sa ugtP lethal: 3; Mtb hypoxia inh: 1; Sa RN4220 lethal: 7.2; Mtb hypoxia inh growth: -6

What do the screens show for `CC(C)N(C(=O)COC(=O)c1cccc(N(C)C)c1)c1ccccc1`?
Bead autofluor: 3569; PrP UTR inh: -21; Sa ugtP lethal: -7; Mtb hypoxia inh: 15; BJeLR viability: 1; Sa RN4220 lethal: 5.4; Mtb hypoxia inh growth: 0

Results for COc1ccc([C@H]2[C@H](C(=O)OC(C)(C)C)N3N=Cc4ccccc4C3C23C(=O)c2ccccc2C3=O)cc1OC (stereo partly specified) ?
Bead autofluor: 2637; PrP UTR inh: -14; Sa ugtP lethal: 0; Mtb hypoxia inh: 4; BJeLR viability: -5; Sa RN4220 lethal: 9.3; Mtb hypoxia inh growth: 2

Results for CCS(=O)(=O)N=C(N)c1ccccc1 ?
Sa ugtP lethal: 3; Mtb hypoxia inh: 4; Sa RN4220 lethal: 1.7; Mtb hypoxia inh growth: -1

What do the screens show for `COc1ccc(Oc2coc3cc(O)ccc3c2=O)cc1`?
Bead autofluor: 3078; PrP UTR inh: -25; Sa ugtP lethal: 3; Mtb hypoxia inh: 13; BJeLR viability: 7; Sa RN4220 lethal: 0.3; Mtb hypoxia inh growth: 3

How did O=C(Cc1csc(NC(=O)Nc2cccc(Cl)c2)n1)NC1CCCC1 do in these assays?
PrP UTR inh: -11; Sa ugtP lethal: -16; Mtb hypoxia inh: -9; BJeLR viability: 10; Sa RN4220 lethal: 1.1; Mtb hypoxia inh growth: 6

Results for COc1ccc(Cc2nnc3c4cnn(C)c4ncn23)cc1 ?
Bead autofluor: 11104; PrP UTR inh: 4; Sa ugtP lethal: 1; Mtb hypoxia inh: 1; BJeLR viability: 3; Sa RN4220 lethal: 3.6; Mtb hypoxia inh growth: 10

Results for Cc1ccc(S(=O)(=O)Nc2ccccc2C(=O)NCC2CCCO2)cc1 (stereo unspecified) ?
Sa ugtP lethal: -1; Mtb hypoxia inh: 7; BJeLR viability: -2; Sa RN4220 lethal: 0.0; Mtb hypoxia inh growth: 14

What do the screens show for `O=C(CCc1ccccc1O)NN=Cc1ccc(Sc2cccc3cccnc23)o1`?
Sa ugtP lethal: -5; Mtb hypoxia inh: 5; Sa RN4220 lethal: -3.0; Mtb hypoxia inh growth: 10

How did COc1cccc(C=NNC(=O)C[n+]2ccccc2)c1OC do in these assays?
Sa ugtP lethal: 9; Mtb hypoxia inh: 2; Sa RN4220 lethal: -2.0; Mtb hypoxia inh growth: 6

How did O=C(c1ccco1)N1CCN(Cc2cc(=O)c(OCc3ccccc3)co2)CC1 do in these assays?
Bead autofluor: inconclusive; PrP UTR inh: -18; Sa ugtP lethal: 10; Mtb hypoxia inh: 12; BJeLR viability: 1; Sa RN4220 lethal: 5.2; Mtb hypoxia inh growth: 2

How did COc1ccccc1-c1cc(C(=O)NCc2ccc(Cl)cc2)no1 do in these assays?
Bead autofluor: 12574; Sa ugtP lethal: 0; Mtb hypoxia inh: 2; BJeLR viability: 1; Sa RN4220 lethal: -1.4; Mtb hypoxia inh growth: 4

How did CNc1nc(C(=O)O)nc(N2CCOCC2)n1 do in these assays?
Bead autofluor: 5141; PrP UTR inh: -4; Sa ugtP lethal: 1; Mtb hypoxia inh: 16; BJeLR viability: 9; Sa RN4220 lethal: 1.8; Mtb hypoxia inh growth: 4

What do the screens show for `CC(=O)c1ccc(OCc2cc(=O)n3ccsc3n2)cc1`?
Bead autofluor: 2169; PrP UTR inh: -80; Sa ugtP lethal: 3; Mtb hypoxia inh: 3; BJeLR viability: 9; Sa RN4220 lethal: 3.8; Mtb hypoxia inh growth: -3

Results for Cc1ccc(S(=O)(=O)N2CCN(CC(=O)Nc3ccc4c(c3)CCC4)CC2)cc1C ?
Bead autofluor: 9776; PrP UTR inh: 1; Sa ugtP lethal: -4; Mtb hypoxia inh: 9; BJeLR viability: -5; Sa RN4220 lethal: 5.3; Mtb hypoxia inh growth: 13

Results for CCC(NC(=O)OC(C)(C)C)C(=O)Oc1ccc2c3c(c(=O)oc2c1)CCC3 (stereo unspecified) ?
Bead autofluor: 17288*; PrP UTR inh: -12; Sa ugtP lethal: -1; Mtb hypoxia inh: -3; BJeLR viability: -8; Sa RN4220 lethal: -1.2; Mtb hypoxia inh growth: 9

How did CCc1cc2c(CN(C)Cc3ccccc3F)cc(=O)oc2cc1O do in these assays?
Bead autofluor: 3910; PrP UTR inh: -19; Sa ugtP lethal: -14; Mtb hypoxia inh: 13; BJeLR viability: 2; Sa RN4220 lethal: 7.5; Mtb hypoxia inh growth: 7

What do the screens show for `Cc1ccc(NC(=O)/C=C/c2cccc(C(F)(F)F)c2)cc1`?
Bead autofluor: 9340; PrP UTR inh: -26; Sa ugtP lethal: 3; Mtb hypoxia inh: -2; BJeLR viability: 8; Sa RN4220 lethal: 8.0; Mtb hypoxia inh growth: 2

Results for O=C(C[n+]1cc(Br)cc(Br)c1)c1ccc(-c2ccccc2)cc1 ?
Bead autofluor: 3212; PrP UTR inh: -15; Sa ugtP lethal: -11; Mtb hypoxia inh: -3; BJeLR viability: 6; Sa RN4220 lethal: 6.0; Mtb hypoxia inh growth: -1

Results for COc1cccc(C=NNC(=O)c2cnccn2)c1 ?
Sa ugtP lethal: 4; Mtb hypoxia inh: 3; Sa RN4220 lethal: 2.1; Mtb hypoxia inh growth: 4

How did Cc1ccc(S(=O)(=O)N[C@@H](C)C(=O)N2CCC(C(=O)N[C@@H](Cc3ccccc3)C(=O)O)CC2)cc1 do in these assays?
Bead autofluor: 3722; PrP UTR inh: -24; Sa ugtP lethal: 8; Mtb hypoxia inh: -3; BJeLR viability: -9; Sa RN4220 lethal: 5.6; Mtb hypoxia inh growth: -10

Structural class: those above containing a tert-butyl group.
Results for COc1ccc([C@H]2[C@H](C(=O)OC(C)(C)C)N3N=Cc4ccccc4C3C23C(=O)c2ccccc2C3=O)cc1OC (stereo partly specified) ?
Bead autofluor: 2637; PrP UTR inh: -14; Sa ugtP lethal: 0; Mtb hypoxia inh: 4; BJeLR viability: -5; Sa RN4220 lethal: 9.3; Mtb hypoxia inh growth: 2

Results for CCC(NC(=O)OC(C)(C)C)C(=O)Oc1ccc2c3c(c(=O)oc2c1)CCC3 (stereo unspecified) ?
Bead autofluor: 17288*; PrP UTR inh: -12; Sa ugtP lethal: -1; Mtb hypoxia inh: -3; BJeLR viability: -8; Sa RN4220 lethal: -1.2; Mtb hypoxia inh growth: 9
